# Measles inh – inhibitors of measles virus growth in infected cells. AID 745. z-score (concentration not given with the values). 33,000 compounds, 0.1% hits. infected Vero cells, GFP fluorescence, 64 h; stronger effect = lower value;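 active = z-score under -3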;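 also: score is relative to mean and SD of the compound wells of a plate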
# Active calls of the source: *. Some of the compounds tested. The share of hits here may be higher or lower than overall.
SMILES,Measles inh
COc1cc(C2Nc3ccccc3NC3=C2C(=O)CC(c2ccc(C)cc2)C3)ccc1OC(C)=O (configuration not stated),0.95
C#CCN1C(=O)C(=O)c2cc(C)ccc21,-0.86
Cc1sc2ncn(Cc3cccc(Br)c3)c(=O)c2c1C,0.18
O=C(Nc1ccccc1-c1nc2ccccc2[nH]1)c1ccccc1Cl,0.43
COC(=O)c1cc2cc(Br)ccc2o1,-1.25
Cc1ccc2[nH]c(=O)c(CNS(=O)(=O)c3ccccc3)c(-c3ccccc3)c2c1,-0.91
CCOC(=O)c1cnc2c(C)cc(C)cc2c1Nc1cccc(Cl)c1C,-0.1
O=C1Nc2cc(C(=O)N3CCN(c4ccccn4)CC3)ccc2SC1N1CCOCC1 (configuration not stated),1.51
Cc1cc(C)cc(OC2CCCCC2NS(=O)(=O)c2ccc(Cl)cc2)c1 (configuration not stated),0.07
CC(=O)N(Cc1c(NC(=O)c2ccccc2)sc(C)c1C)C(C)C,-0.18
N#Cc1c(NC(=O)CC2Nc3ccccc3NC2=O)sc2c1CCCC2 (configuration not stated),0.93
CCOc1ccccc1NC(=O)c1sc2nc(C)nc(N3CCOCC3)c2c1C,-0.85
O=C(COC(=O)c1ccc(N2C(=O)c3ccccc3C2=O)cc1)c1ccc(Cl)cc1,-1.36
O=C(CNS(=O)(=O)c1ccc(Br)s1)NCCN1CCN(c2ccccc2)CC1,0.75
COc1ccc([N+](=O)[O-])cc1NC(=O)c1sc2ncnc(N(C)c3ccccc3)c2c1C,0.2
O=C(NCc1ccc(F)cc1)c1cccc([N+](=O)[O-])c1,1.76
CCc1cccc(CC)c1NC(=O)CCS(=O)(=O)c1ccc(Br)cc1,0.22
CC(C)c1ccc(NC(=O)CSc2ncccc2C(=O)Oc2cccc([N+](=O)[O-])c2)cc1,-0.38
Cc1ccc(OCC(=O)N2CCN(c3ccc([N+](=O)[O-])cc3)CC2)cc1C,-0.77
COC(=O)c1c(NC(=O)c2ccnn2C)sc2c1-c1ccccc1CC2,-0.78

# Entries listed so far with a thiophene ring, fused or not (7):
SMILES,Measles inh
Cc1sc2ncn(Cc3cccc(Br)c3)c(=O)c2c1C,0.18
CC(=O)N(Cc1c(NC(=O)c2ccccc2)sc(C)c1C)C(C)C,-0.18
N#Cc1c(NC(=O)CC2Nc3ccccc3NC2=O)sc2c1CCCC2 (configuration not stated),0.93
CCOc1ccccc1NC(=O)c1sc2nc(C)nc(N3CCOCC3)c2c1C,-0.85
O=C(CNS(=O)(=O)c1ccc(Br)s1)NCCN1CCN(c2ccccc2)CC1,0.75
COc1ccc([N+](=O)[O-])cc1NC(=O)c1sc2ncnc(N(C)c3ccccc3)c2c1C,0.2
COC(=O)c1c(NC(=O)c2ccnn2C)sc2c1-c1ccccc1CC2,-0.78

# Continued.
SMILES,Measles inh
COc1cccc2cc(C(=O)N(C)C)c(=O)oc12,-0.56
CCSc1nc2c(c(=O)[nH]1)C(c1ccc(N(CC)CC)cc1)C1=C(CCCC1=O)N2 (configuration not stated),-0.83
O=C(CN1N=C(c2ccccc2)CCC1=O)NCCCN1CCCCCC1,0.46
COC(=O)C(Br)C12CC3CC(CC(C3)C1)C2 (configuration not stated),-0.35
O=C(c1ccc(S(=O)(=O)N2CCOCC2)cc1)N1CCCC1,-0.23
Cc1nc(N2CCCCC2)c2c(C)c(C(=O)N3CC(C)CC(C)C3)sc2n1 (configuration not stated),-0.73
Cn1c(=O)nc2n(Cc3ccccc3)c3cccc(Cl)c3cc-2c1=O,3.05
Cc1cc(C)c(S(=O)(=O)N(CCCN2CCOCC2)Cc2cccs2)c(C)c1,-0.22
O=C(NCc1cccnc1)c1ccc2c(=O)n(CCC3=CCCCC3)c(=S)[nH]c2c1,-1.25
O=C1CC2c3ccccc3C1C1C(=O)N(c3ncn[nH]3)C(=O)C21 (configuration not stated),0.03
O=C(c1ccc2c(=O)n(CCc3c[nH]c4ccccc34)c(=S)[nH]c2c1)N1CCCCC1,-0.65
COc1ccc2cc3cc(C(=O)NC4CCCC4)sc3nc2c1,0.55
O=C(Cc1ccccc1)N1N=C(C2CCCCC2)CC1(O)C(F)(F)F (configuration not stated),0.58
CCCCC(=O)N1CC(=O)Nc2ccc(F)cc2C1c1ccccc1 (configuration not stated),-1.46
COc1ccc(Cl)cc1NC(=O)CSc1nc2cc(OC)c(OC)cc2c2nc(C)nn12,-0.11
COc1ccc(C2=NN3C(C2)c2cc(OC)ccc2OC3(C)C)cc1 (configuration not stated),-0.07
COc1ccc(NC(=O)C(=O)NCC(C)C)cc1,0.96
Cc1cc(C)c2nc(C)cc(Nc3cccc(C(=O)O)c3)c2c1,-0.89
CSc1ccc(CN2CCN(S(=O)(=O)c3ccc4ccccc4c3)CC2)cc1,-0.87
COc1ccccc1C=Cc1ccccc1OC,0.34
COc1cc2nc(SCC(=O)Nc3ccccc3F)n3nc(C)nc3c2cc1OC,1.89
CCOC(=O)c1c(NC(=O)c2ccc([N+](=O)[O-])c(C)c2)sc(C(C)=O)c1C,1.29
NC(=O)c1cc2cc(Cl)ccc2oc1=NCc1ccccc1,0.42
NC(=O)C(=O)Nc1ccccc1Cl,-0.9
CCC(C)NS(=O)(=O)c1cc(C(=O)Nc2cccc(C)c2)ccc1F (configuration not stated),-0.88
O=[N+]([O-])c1c(NCCCO)cc(SCc2ccco2)c2nonc12,-0.53
Cn1c(COc2ccc(F)cc2)nc2ccccc21,0.34
CC(=O)N1C(=O)c2cccc3cccc1c23,-0.25
CCSc1sc(CC)cc1C1C(C(=O)Nc2ccccn2)=C(C)NC2=C1C(=O)CC(c1ccccc1)C2 (configuration not stated),-0.13
CCCOc1ccccc1C1NC(=O)NC(C)=C1C(=O)OCC1CCCCC1 (configuration not stated),1.37
O=C(Nc1nc(-c2ccc(Br)cc2)cs1)c1c(O)c2ccccc2[nH]c1=O,-0.27
NC(=O)c1ccccc1NC(=O)c1cc2ccccc2oc1=O,-0.15
Nc1c(N=O)c(=O)[nH]c(=O)n1Cc1ccco1,-0.8
CCN(c1ccccc1)S(=O)(=O)c1ccc(F)c(C(=O)Nc2cc(OC)ccc2OC)c1,-0.04
Cn1c(=O)c2c(nc(NC3CCCCC3)n2Cc2ccc(F)cc2)n(C)c1=O,1.06
COc1ccc(NC(=O)c2sc3nc(C)c(C(=O)Nc4ccc(C)cc4C)c(-c4ccc(C)o4)c3c2N)cc1,1.36
Cc1ccccc1C(=O)Nc1c2c(nc3ccccc13)CCCC2,1.04
O=C1C2C3CCC(C3)C2C(=O)N1c1ccc(OCc2ccccc2)cc1 (configuration not stated),-1.2
COCCCNc1cc(C)nc2ccc(C)cc12,0.8
CCOC(=O)c1ccc(OC(=O)c2sc3ncn(CC)c(=O)c3c2C)cc1,-0.67
CCCCCCc1cc2cc(C(N)=O)c(=Nc3ccccc3C)oc2cc1O,0.02
CC1CCN(C(=O)C2CCN(S(=O)(=O)c3ccccc3)CC2)CC1,1.09
COC(=O)c1ccc(S(N)(=O)=O)o1,-0.47
COc1ccc(-n2c3c(cc(C(=O)Nc4ccccc4OC)c2=O)C(=O)CC(C)(C)C3)cc1,0.63
O=c1c2ccccc2[nH]c2ccc([N+](=O)[O-])cc12,-2.09
O=C1C2C(c3ccccc3)OC3(C(=O)c4ccccc4C3=O)C2C(=O)N1c1cccc(C(F)(F)F)c1 (configuration not stated),-0.71
CCOc1cc(C=NCCN2Cc3ccccc3C2=O)ccc1O,0.57
Cc1cccc(N2CCN(S(=O)(=O)c3ccc(F)c(C(=O)Nc4ccccc4Cl)c3)CC2C)c1 (configuration not stated),-0.01
O=C(Nc1ccc(-c2nc3cc(NC(=O)C4CCCCC4)ccc3o2)cc1)C1CCCCC1,1.91
CCc1ccc2oc(-c3ccc(C)c(NC(=O)c4ccccc4F)c3)nc2c1,-0.21
CCCC(=O)N1c2ccccc2-c2nnc(SCC)nc2OC1c1cccs1 (configuration not stated),-0.31
CC(=O)Oc1c(Sc2ccccc2)c(C)nn1-c1ccccc1,0.13
O=C(NCc1ccccn1)c1cccc(-n2c(=S)[nH]c3cc(Cl)ccc3c2=O)c1,-0.6
CCOC(=O)c1cnc(SC2CC(=O)N(c3cccc(OC)c3)C2=O)nc1N (configuration not stated),-0.23
O=C(C1=C(O)C(=O)N(CCc2ccccc2)C1c1ccc(F)cc1)c1cccs1 (configuration not stated),-1.38
COc1cccc(C2=CC(c3ccc(OC)c(OC)c3)n3nnnc3N2)c1 (configuration not stated),-0.15
CCCOc1ccc(Cc2c(O)nc(N)[nH]c2=O)cc1C,-0.51
COc1ccc2cc3cc(C(=O)Nc4ccc(C(C)C)cc4)sc3nc2c1,2.49
CCOC(=O)C(C)OC(=O)c1ccc([N+](=O)[O-])cc1Cl (configuration not stated),0.16
CCc1cccc(CC)c1-n1c(CNC(=O)COc2ccccc2)n[nH]c1=S,-0.32

# Additional structures
SMILES,Measles inh
CN(C)C1c2cccc3cccc(c23)C1NS(=O)(=O)c1ccc(Cl)cc1 (configuration not stated),-0.78
CCOC(=O)C1CCN(C(=O)CCn2c(=O)[nH]c3ccccc3c2=O)CC1,-1.32
COc1ccc2c(c1)CCc1c(C(=O)Nc3cccc(C(F)(F)F)c3)noc1-2,0.69
COc1ccc(CCN2C(=O)c3cccnc3C2=O)cc1OC,-0.84
CC1CCN(S(=O)(=O)c2ccc3nc(-c4ccncc4)cc(C(=O)Nc4cccc(C(F)(F)F)c4)c3c2)CC1,0.89
O=C(Oc1ccc(N(C(=O)c2ccncc2)S(=O)(=O)c2ccccc2)c2ccccc12)c1ccncc1,-0.08
O=C(c1cccc(Br)c1)N1c2ccccc2Sc2ccccc21,-1.16
CCOc1ccc(N2C(=O)C3C4c5ccccc5C(C=Nc5ccccc5C(=O)O)(c5ccccc54)C3C2=O)cc1 (configuration not stated),-0.7
CC(C)c1ccc(NC(=O)CCC(=O)O)cc1,0.05
COc1ccc(Cl)cc1NC(=O)CCS(=O)(=O)c1cccc2nonc12,0.46
Cc1ccccc1-n1nc2c(c1NC(=O)c1ccc(Br)cc1)CSC2,1.55
CCC1CCCCN1C(=O)Cn1c(=O)n(-c2ccc(OC)cc2OC)c(=O)c2c3c(sc21)CCCC3 (configuration not stated),-0.61
CCOC(=O)C1=C(C)Nc2nc(N)nn2C1c1ccccc1OC (configuration not stated),0.31
COc1ccc2c(c1)sc1nc(-c3cc4ccccc4oc3=O)cn12,-0.75
CCN1CCN(C(=O)C2CCN(S(=O)(=O)CC)CC2)CC1,-0.34
CC1CCN(C(=O)c2ccccc2C(=O)Nc2ccc3[nH]c(=S)sc3c2)CC1,1.88
CCCN1CCN(C(=O)Cn2cnc3ccc(S(=O)(=O)N4CCC(C)CC4)cc3c2=O)CC1,0.92
COc1nc(OC)nc(OCCCl)n1,-1.04
COc1ccc(OCc2nc(-c3cccc([N+](=O)[O-])c3)no2)cc1,-0.89
Cc1nnc(NC(=O)CCC(=O)O)s1,1.43

# Sorted by the number under Measles inh (low to high): some entries from above.
SMILES,Measles inh
Cc1cc(C)c2nc(C)cc(Nc3cccc(C(=O)O)c3)c2c1,-0.89
CCOc1ccc(N2C(=O)C3C4c5ccccc5C(C=Nc5ccccc5C(=O)O)(c5ccccc54)C3C2=O)cc1 (configuration not stated),-0.7
O=C(Nc1ccccc1-c1nc2ccccc2[nH]1)c1ccccc1Cl,0.43
Cc1ccccc1C(=O)Nc1c2c(nc3ccccc13)CCCC2,1.04
O=C(NCc1ccc(F)cc1)c1cccc([N+](=O)[O-])c1,1.76

# (further entries)
SMILES,Measles inh
Cc1ccc(C2=NN(CC(=O)NCCCOC(C)C)C(=O)CC2)cc1,-1.01
CC(=O)c1cccc(NC(=O)CCS(=O)(=O)c2cccc3nsnc23)c1,-0.37
COc1ccc(Cl)cc1NC(=O)CSc1nc2c([nH]c3ccccc32)c(=O)n1C,0.5
COc1ccccc1NC(=O)CSc1nc2ccccc2n1S(=O)(=O)c1cc([N+](=O)[O-])ccc1C,-1.05
O=C(C1CCCN(Cc2cccc(Cl)c2)C1)N1CCCCC1 (configuration not stated),0.36
COc1ccc(OC(C)C(=O)Nc2ncn[nH]2)cc1 (configuration not stated),0.36
Cc1ccnc(NS(=O)(=O)c2ccc(NS(=O)(=O)c3c(C(C)C)cc(C(C)C)cc3C(C)C)cc2)n1,-0.76
CCOCCOC(=O)C1=C(C)NC(=O)NC1c1ccc(C)cc1 (configuration not stated),1.23
O=C(c1ccc(Br)o1)N1CCN=C1SCc1ccccc1,-0.89
Cc1cc(-c2c(C)n([O-])c(C)c(C)[n+]2=O)ccc1F,-0.2
CCSc1ccc(C(=O)NCCOc2ccc(C)cc2)cc1[N+](=O)[O-],2.93
CC(=O)N1CCc2cc(S(=O)(=O)NCc3ccccn3)ccc21,-1.52
Cc1ccccc1-n1c(N)c(C#N)c2nc3ccccc3nc21,-0.4
COc1ccc(NC(=O)Cn2c(=O)n(CCc3ccccc3)c(=O)c3c(C)c(C)sc32)cc1,2.83
CCCNC(=O)c1ccc2c(c1)N(Cc1ccc(Cl)cc1)C(=O)CS2,0.4
C=CCOc1ccc(C(C2=C(O)CC(C)(C)CC2=O)C2C(=O)CC(C)(C)CC2=O)cc1OC (configuration not stated),-1.38
CCOc1ccc(N(C)S(=O)(=O)c2ccc3[nH]cc(C(=O)N(CC)CC)c(=O)c3c2)cc1,0.74
CC(=O)Oc1c(Cl)cc(N(C(C)=O)S(=O)(=O)c2ccc(C)cc2)c2ccccc12,-1.35
CC1CC(C)CN(CCCNC(=O)c2ccc3c(c2)ncn3C2CCCCC2)C1 (configuration not stated),0.83
CCCCOC(=O)c1ccccc1N1C(=O)C2C3CCC(C3)C2C1=O (configuration not stated),-0.03
N#CCc1ccc(NC(=O)c2ccccc2Br)cc1,1.04
CCOC(=O)c1sc2nc(SCc3ccccc3C)n(CC3CCCO3)c(=O)c2c1C (configuration not stated),1.72
OC1CCC2OC1CCC2O (configuration not stated),2.13
Cc1ccc2oc(-c3cc(NC(=O)c4ccco4)ccc3O)nc2c1,0.49
CCCN1C(=O)c2ccccc2NC1c1ccc(OC)cc1O (configuration not stated),-0.74
